From PubChem BioAssay
BmaI1 enzyme: BmaI1 acyl-homoserine lactone synthase inhibition – biochemical, fluorescence intensity, with counterscreen (AID 720554). BmaI1 enzyme assay, fluorescence intensity; active compounds read high; test concentration not given here; a few actives read low; strong numbers were not always called active. inhibition, %. actives 0.4% (n = 12,000);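 active = both replicates within 2 robust z-scores of the inhibited control and a quiet counterscreen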;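 also: 0% = uninhibited enzyme and 100% = inhibited control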
BmaI1 enzyme counterscreen: further read-out of BmaI1 enzyme, marked with its call; inhibition, %; measured here: counterscreen; design of the counterscreen not given here;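 first of two replicates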
Starred values were filed as active, the others as inactive.

The opening 2 compounds (preview)
item | compound | BmaI1 enzyme | BmaI1 enzyme counterscreen
1 | CCCCCn1c(=N)c(C#N)cc2c(=O)n3ccccc3nc21 | 13 | 10
2 | N#Cc1c(NC(=O)CSc2ccccc2)sc2c1CCC2 | 12 | 6

The list itself (from the top)
item | compound | BmaI1 enzyme | BmaI1 enzyme counterscreen
1 | CCCCCn1c(=N)c(C#N)cc2c(=O)n3ccccc3nc21 | 13 | 10
2 | N#Cc1c(NC(=O)CSc2ccccc2)sc2c1CCC2 | 12 | 6
3 | O=C(COC(=O)c1cc2ccccc2[nH]1)c1ccccc1 | 8 | -2
4 | CC1CCCN(C(=O)C(C)OC(=O)c2c3c(nc4ccccc24)CCN(C)C3)C1 (centres undefined) | 12 | 7
5 | O=C(Nc1ccc(F)c(Cl)c1)c1ccc(N2C(=O)CCC2=O)cc1 | 8 | 4
6 | O=C(Nc1ccc(N2CCCCC2)cc1)c1ccc(=O)oc1 | -12 | -36
7 | O=C(O)CON=C1c2ccccc2-c2ccccc21 | -5 | -5
8 | COCCn1c(N)c(-c2nc3ccccc3[nH]2)c(O)c1N=Nc1ccc(F)c(F)c1 | 46 | 2
9 | COc1ccc(CN(C)Cc2nc3cc(Cl)ccc3c(=O)[nH]2)c(OC)c1 | 2 | 4
10 | Cc1nn(Cc2ccccc2)c(Cl)c1C(=O)OCC(=O)N(C)C1CCS(=O)(=O)C1 (centres undefined) | 12 | 12
11 | Cc1ccc(NC(=O)CN(C)C(=O)Cc2ccccc2F)cc1 | 2 | 1
12 | COc1ccc(CNC(=O)Cn2cnc3ccccc32)cc1OC | 10 | 7
13 | Cc1ccc2c(Cl)cc(Cl)c(OC(=O)C3CC3)c2n1 | 22 | -2
14 | C=CCSc1ccccc1N | 35 | 4
15 | CCOc1ccc(-c2nc(CN3CCN(S(=O)(=O)c4ccc(Cl)cc4)CC3)cs2)cc1 | 10 | 8
16 | OCCc1nc2ccccc2s1 | 11 | 3

Exported field by field: three of the compounds above
9: COc1ccc(CN(C)Cc2nc3cc(Cl)ccc3c(=O)[nH]2)c(OC)c1
  BmaI1 enzyme = 2
  BmaI1 enzyme counterscreen = 4
10: Cc1nn(Cc2ccccc2)c(Cl)c1C(=O)OCC(=O)N(C)C1CCS(=O)(=O)C1 (centres undefined)
  BmaI1 enzyme = 12
  BmaI1 enzyme counterscreen = 12
11: Cc1ccc(NC(=O)CN(C)C(=O)Cc2ccccc2F)cc1
  BmaI1 enzyme = 2
  BmaI1 enzyme counterscreen = 1

Continued:
item | compound | BmaI1 enzyme | BmaI1 enzyme counterscreen
17 | COc1ccc2c(CC(=O)OCc3cccc(C#N)c3)coc2c1 | 12 | 6
18 | CC(=O)N1CCN(S(=O)(=O)c2cccc(C(=O)Nc3ccnn3C(C)C3CC3)c2)CC1 (centres undefined) | 13 | 4
19 | CN(C)Cc1nc2ccccc2c(=O)n1Cc1nc(-c2cc3ccccc3o2)cs1 | 14 | 10
20 | O=C(OCc1nc2ccccc2s1)c1cc(=O)[nH]c(=O)[nH]1 | 5 | 0
21 | CCN(CC)S(=O)(=O)c1ccc(N2CCN(C(=O)c3ccccc3)CC2)nc1 | 8 | 14
22 | COc1ccc(N2CCN(C(=O)C(CCSC)N=C3NS(=O)(=O)c4ccccc43)CC2)cc1 (centres undefined) | -1 | -2
23 | COc1ccc(C(=O)OCC(=O)Nc2ccc3[nH]c(=O)[nH]c3c2)cc1 | 10 | 20
24 | COc1ccc(CCNC(=O)COc2ccc(-c3noc(C)n3)cc2)cc1OC | 20 | 11
25 | O=C(Cc1ccc(S(=O)(=O)N2CCOCC2)s1)Nc1ccccc1Br | 12 | -4
26 | Cc1cc2nc(N(C)C)c3ccccc3n2n1 | 4 | 0
27 | CC(C)N1C(=O)C(O)(c2nnc(-c3ccccc3)o2)c2ccccc21 (centres undefined) | 1 | 3
28 | CSc1cccc(NC(=O)c2cccc(CS(C)(=O)=O)c2)c1 | 16 | 18
29 | O=c1[nH]c2ccccc2nc1CCc1ccccc1 | 18 | 16
30 | O=C(O)COCCN1CCN(C(c2ccccc2)c2ccc(Cl)cc2)CC1 (centres undefined) | 2 | 10
31 | Cc1cc(C(=O)CSc2nnc(CN3CCCC3)o2)c(C)n1CCC(C)C | 4 | -3
32 | CC1CCCN(CC(=O)Nc2ccc(Cl)c(C(F)(F)F)c2)C1 (centres undefined) | 14 | 11

Record cards (already shown):
`CC(C)N1C(=O)C(O)(c2nnc(-c3ccccc3)o2)c2ccccc21` (centres undefined) in the list: BmaI1 enzyme = 1; BmaI1 enzyme counterscreen = 3
`Cc1cc2nc(N(C)C)c3ccccc3n2n1` in the list: BmaI1 enzyme = 4; BmaI1 enzyme counterscreen = 0
`O=C(O)COCCN1CCN(C(c2ccccc2)c2ccc(Cl)cc2)CC1` (centres undefined) in the list: BmaI1 enzyme = 2; BmaI1 enzyme counterscreen = 10

Part of the list above in a different format.
Under each structure: BmaI1 enzyme, BmaI1 enzyme counterscreen
21) CCN(CC)S(=O)(=O)c1ccc(N2CCN(C(=O)c3ccccc3)CC2)nc1
  8, 14
22) COc1ccc(N2CCN(C(=O)C(CCSC)N=C3NS(=O)(=O)c4ccccc43)CC2)cc1 (centres undefined)
  -1, -2
23) COc1ccc(C(=O)OCC(=O)Nc2ccc3[nH]c(=O)[nH]c3c2)cc1
  10, 20

Additional compounds
item | compound | BmaI1 enzyme | BmaI1 enzyme counterscreen
33 | O=C1CCCN1c1ccc(OCc2ccc(F)cc2)cc1 | 20 | 4
34 | COC(=O)C(C)Oc1ccc(Oc2nc(Cl)ccc2Cl)cc1 (centres undefined) | 14 | 8
35 | CCN(CC)S(=O)(=O)c1cccc(C(=O)OCN2C(=O)c3ccccc3C2=O)c1 | 28 | 5
36 | CSc1nc(CSc2nnc(-c3ccccc3)n2-c2ccc(Cl)cc2)cc(=O)[nH]1 | 40 | 8
37 | Cc1ccc(S(=O)(=O)NC(=O)N(C)c2ccccc2)cc1 | 33 | 1
38 | Cn1c(Cc2nnc3n2-c2ccccc2SC3)nc2ccccc21 | 28 | -1
39 | Cn1c(=O)c(C(=O)CN2CCCCC2)c(N)n(Cc2ccccc2)c1=O | 2 | 2
40 | COC(=O)c1cc(CSc2cccc[n+]2[O-])oc1C | 10 | 7
41 | O=C(CSc1nc2ccccc2o1)NCc1ccc(F)cc1 | -11 | -4
42 | N#CC1=C(N)C(C#N)(C#N)C(c2cccs2)C=C1C1CC1 (centres undefined) | 18 | 2
43 | C=CCSc1nnc(NC(=O)c2oc3ccccc3c2C)s1 | 0 | 0
44 | COc1ccc(-n2c(SCC(=O)N(C)Cc3cccs3)nc3ccccc32)cc1 | 11 | -6
45 | COCCn1c(SCc2nc3ccccc3nc2C)nc2ccccc21 | 12 | 4
46 | CC(C)C(SCc1ccccc1)C(=O)NC(N)=O (centres undefined) | 10 | 10
47 | CCOc1ncccc1C(=O)N(C)CC1COc2ccccc2O1 (centres undefined) | 10 | 8
48 | COCCCn1c(=O)[nH]c(=O)c2c(N)c(C(=O)c3ccccc3)sc21 | 6 | 6
49 | Oc1c(/C=N/N2CCOCC2)cc2c3c1CCCN3CCC2 | 60 | 28
50 | COCCNC(=O)c1ccccc1CSc1nc2ccccc2o1 | 15 | -2
51 | NC(=O)CSc1ncnc2sc(-c3ccccc3)cc12 | 18 | 8
52 | CN(C)S(=O)(=O)c1ccc(C(=O)OCC2CCCO2)cc1 (centres undefined) | 12 | 11
53 | O=C(CN1CCN(c2ccccc2Cl)CC1)NC(=O)Nc1ccccc1F | 28 | 14
54 | Cc1nn(C2CCS(=O)(=O)C2)c(Cl)c1/C=C/C(=O)OCc1csc(-c2ccccc2)n1 (centres undefined) | 6 | 10
55 | Cc1nn(-c2ccccc2)c2sc(C(=O)OCC(=O)Nc3ccccc3)cc12 | 16 | 11
56 | Cc1noc(C)c1COc1ccc(C(=O)OCC(N)=O)cc1 | 14 | 3
57 | Cc1cccc(N(Cc2ccccc2)C(=O)COc2ccc(-c3nnco3)cc2)c1 | 22 | 2
58 | CCC(=O)c1ccc(OCC(=O)NC2CCCC2)cc1 | -10 | -10
59 | S=C1Nc2ccccc2CS1 | -22 | -5
60 | COC(=O)c1cc(COC(=O)c2ccccc2Sc2ccccc2C#N)oc1C | -5 | -5
61 | O=C(CSc1nc2ccccc2n1-c1ccccc1)c1ccc[nH]1 | 22 | 9
62 | CCOC(=O)C1CCN(c2nnnn2-c2ccccc2)CC1 | 0 | 2
63 | CC(C)n1ncc2cc(N)cnc21 | 30 | -4
64 | COCC(C)n1c(C)cc(C(=O)CSc2ncccn2)c1C (centres undefined) | 4 | -1
65 | Cc1ccc(S(=O)(=O)N2CCN(C(=O)COC(=O)c3ccc(O)cc3)CC2)cc1 | 3 | 0
66 | Cc1ccccc1Nc1nnc(SCC(=O)NC(C)(C#N)C(C)C)s1 (centres undefined) | 44 | 14
67 | Nc1nnc(SCC(=O)c2cccs2)s1 | 54 | 31
68 | O=C1CSc2ccc(C(=O)N3CCN(S(=O)(=O)c4ccc5c(c4)CCC5)CC3)cc2N1 | 15 | 2
69 | Cc1cc(-n2c(C)cc(C(=O)COC(=O)c3ccc(C)c(NC(=O)c4ccco4)c3)c2C)no1 | 14 | 0
70 | O=C(CCN1C(=O)NC2(CCCC2)C1=O)Nc1nc2ccccc2[nH]1 | 15 | 8
71 | Cc1c2oc3c(C)ccc(C(=O)N[C@@H]4C(=O)N[C@H](C(C)C)C(=O)N5CCC[C@H]5C(=O)N(C)CC(=O)N(C)[C@@H](C(C)C)C(=O)O[C@@H]4C)c3nc-2c(C(=O)N[C@@H]2C(=O)N[C@H](C(C)C)C(=O)N3CCC[C@H]3C(=O)N(C)CC(=O)N(C)[C@@H](C(C)C)C(=O)O[C@@H]2C)c(N)c1=O | 61 | 22
72 | CC1=C/C(=N/NC(=O)COc2cc(C)ccc2C(C)C)CC1 | 24 | 2
73 | O=C(c1ccco1)N1CCCSC1=Nc1ccccc1 | 10 | 6
74 | Cc1c(O)ccc(/C(Cc2ccc3ccccc3n2)=N\N)c1O | 55 | 23
75 | Cc1oc(-c2ccccc2)nc1C(=O)OCc1nc2ccccc2c(=O)n1CC#N | 16 | 15
76 | Cc1ccccc1OCCN1C(=O)NC(C)(c2ccccc2)C1=O (centres undefined) | 12 | 16
77 | CC(OC(=O)c1cccn1C)C(=O)Nc1ccc(Cl)cc1 (centres undefined) | 15 | 10
78 | CCn1c(COC(=O)c2c(NC(C)=O)sc(C)c2C)nc2cc(S(=O)(=O)N(C)C)ccc21 | 12 | -4
79 | N#Cc1ccc(CSc2nnc(-c3cccs3)n2CC2CCCO2)cc1 (centres undefined) | 11 | 4
80 | Cc1nc(Cc2nnc(SC/C(O)=C(\C#N)c3nc4ccccc4[nH]3)o2)cs1 | 13 | 8
81 | O=C(COc1nc2ccccc2nc1N1CCOCC1)N1CCc2ccccc2C1 | 4 | 2
82 | S=c1[nH]nc(COc2ccccc2Cl)n1C1CC1 | 52 | 33
83 | Cc1ccc(-n2nc(CC#N)c(C#N)c2N)cc1 | 4 | -4
84 | CCOC(=O)C1=C(C)NC(C)=C(C(=O)OCC)C1C(=O)OCc1cc(=O)oc2cc(O)ccc12 | 8 | -3
85 | COc1cc(CC(=O)OCC(N)=O)cc(OC)c1OC | 18 | 7
86 | CC(=O)Nc1ccc(OC(F)(F)C(F)F)c(NC(C)=O)c1 | 13 | 8
87 | Cc1ccc(S(=O)(=O)N2CCC(C(=O)OCC(=O)c3cc(C)n(C4CC4)c3C)CC2)cc1C | 18 | 2
88 | CCn1nc(C(=O)Nc2ccc(S(=O)(=O)Nc3ncccn3)cc2)c2ccccc2c1=O | 8 | 0

Additional records:
item | compound | BmaI1 enzyme | BmaI1 enzyme counterscreen
89 | CCCn1c(N)c(C(=O)CSc2nnc(Nc3cccc(OC)c3)s2)c(=O)n(C)c1=O | 3 | 4
90 | Cc1cc(OCC(=O)Oc2c(C)cc(Br)cc2Cl)no1 | 10 | -1
91 | CCc1cc(SC(C)C(=O)c2c(N)n(C)c(=O)n(C)c2=O)n2c(nc3ccccc32)c1C#N (centres undefined) | 34 | 2
92 | COC(=O)C(CC(C)C)NC(=O)c1ccccc1Cl (centres undefined) | -9 | -9
93 | CC(Sc1nc2ccccc2c(=O)n1Cc1ccco1)C(=O)c1ccc(F)c(F)c1 (centres undefined) | 12 | -2
94 | COC(=O)c1ccc(OCC(=O)NCC(F)(F)F)cc1 | 18 | 0
95 | Fc1ccc(C2CCNCC2COc2ccc3c(c2)OCO3)cc1 (centres undefined) | -10 | 0
96 | C[N+]1(C)CCN(c2ccccc2)CC1 | 1 | 2
97 | O=C(Oc1c(CN2CCOCC2)cc(Cl)c2cccnc12)c1ccccc1 | -10 | -40
98 | CC(NC(=O)Cn1c(=O)oc2cc(S(=O)(=O)N(C)C)ccc21)c1ccccc1 (centres undefined) | 10 | 7
99 | Cc1csc(CC(N)=S)n1 | 40 | 1
100 | CCn1c(SCC(=O)Nc2ccc3c(c2)OCO3)nc2ccc(Br)cc2c1=O | 14 | 10
101 | Cc1ccc(CNC(=O)NCc2cccc(CNC(=O)NCc3ccc(C)n3C)c2)n1C | -11 | -2
102 | CC1CC(C)CN(CC(=O)Nc2cccnc2Cl)C1 (centres undefined) | 18 | 8
103 | Cc1ccc(C(=O)COC(=O)c2ccc(-n3cccn3)cc2)s1 | 6 | -3
104 | CCCN(Cc1nnc(-c2ccco2)o1)C(=O)CSc1nnc(-c2ccc(Cl)cc2)o1 | -2 | 0
105 | Cc1cc(C(=O)CSc2nc3ccccc3c(=O)n2CCO)c(C)n1C(C)C | 16 | 10
106 | CC1Cc2ccccc2N1S(=O)(=O)c1cccc(C(=O)N2CC(=O)Nc3ccccc32)c1 (centres undefined) | -6 | -5
107 | Cc1[nH]c2ccc(C(=O)OCC#N)cc2c1C | 25 | 48
108 | CSc1nc2ccc(NC(=O)CNC(=O)c3cccs3)cc2s1 | 15 | 10
109 | Cc1noc(C)c1CNc1ccccc1 | 23 | 2

Some of the compounds tested; rates above refer to the full screens.
